Compound activity: PubChem BioAssay, several laboratories
RecA intein inh: blocks M. tuberculosis RecA intein splicing; inhibition, %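 (about 9 µM by stock and volumes)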; actives 0.75% (n = 290,000); AID 2221; cell-free RecA intein splicing, fluorescence; P9WHJ3; in the data active = inhibition above about 30%; inconclusive = no clear call, values can overlap the other calls;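 note: 0% = vehicle wells and 100% = reference inhibitor control wells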
Target sequence (P9WHJ3 whole entry, looked up): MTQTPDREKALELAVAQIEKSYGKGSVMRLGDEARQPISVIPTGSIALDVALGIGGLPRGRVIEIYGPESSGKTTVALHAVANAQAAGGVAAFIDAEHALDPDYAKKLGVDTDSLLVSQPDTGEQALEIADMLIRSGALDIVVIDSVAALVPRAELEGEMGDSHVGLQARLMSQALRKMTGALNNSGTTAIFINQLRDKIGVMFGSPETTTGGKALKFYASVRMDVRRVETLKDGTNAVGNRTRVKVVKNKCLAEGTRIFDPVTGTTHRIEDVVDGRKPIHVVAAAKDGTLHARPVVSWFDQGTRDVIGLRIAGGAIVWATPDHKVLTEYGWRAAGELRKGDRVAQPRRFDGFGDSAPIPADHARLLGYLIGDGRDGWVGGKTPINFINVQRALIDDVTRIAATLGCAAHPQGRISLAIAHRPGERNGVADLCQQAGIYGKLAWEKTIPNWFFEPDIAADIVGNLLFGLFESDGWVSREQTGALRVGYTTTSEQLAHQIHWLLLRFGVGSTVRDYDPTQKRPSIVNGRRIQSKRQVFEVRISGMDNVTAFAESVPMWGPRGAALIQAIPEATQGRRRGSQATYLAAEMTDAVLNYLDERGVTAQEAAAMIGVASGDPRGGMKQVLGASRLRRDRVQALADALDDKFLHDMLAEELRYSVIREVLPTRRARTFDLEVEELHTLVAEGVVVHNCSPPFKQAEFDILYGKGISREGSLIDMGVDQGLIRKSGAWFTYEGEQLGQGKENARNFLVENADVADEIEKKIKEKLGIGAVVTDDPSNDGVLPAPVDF
Arbovirus anti: antivirals against arbovirus infection | arbovirus infection cell-based antiviral screen | inhibition, % at 10 µM | actives 0.37% (n = 200,000);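 active = inhibition from about 30%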;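 note: bluetongue infection of BSR cells; cell survival read as ATP light after 72 h; 0% = infected wells without compound and 100% = uninfected wells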
YopH inh: blocks Yersinia enterocolitica YopH tyrosine phosphatase; actives 0.16% (n = 140,000); inhibition, %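 (about 10 µM by stock and volumes)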; AID 898; fluorescence Ex485/Em525;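 active = inhibition of 50% or more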;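 note: controls were vehicle for no effect and minimum signal wells for full effect; inactives centre near -20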
Mtb H37Rv: M. tuberculosis H37Rv growth inhibitors, H37Rv strain (AID 1626) | actives 0.95% (n = 220,000) | inhibition, % at 10 µM, or IC50 in µM where a hit was titrated | M. tuberculosis H37Rv growth inhibition; higher % means a stronger effect;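 active = confirmed in a dose series; inconclusive = inhibition above 80% but not taken into the dose series; inactive = below 80% or under 30% at every dose of the series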;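 note: bacteria incubated seven days before Alamar blue readout; 0% = bacteria only wells and 100% = bacteria with antibiotic wells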
Mtb bLac sens: beta-lactam sensitization of Mtb H37Rv; M. tuberculosis H37Rv growth with meropenem, percent inhibition; hits of this screen are not shown here; inhibition, % at 25 µM; actives 0.27% (n = 330,000);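 active = about 74% or more and at least 40 points above the plate without the antibiotic, then above 30% in a dose series; inconclusive = first-round hits that could not be retested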;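 note: growth measured after seven days incubation then overnight dye step; 0% = bacteria only wells and 100% = bacteria with antibiotic; twin plates without the antibiotic show which effects depend on it; some results filed as inactive read as strong as hits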
An asterisk follows results filed as active; ? = inconclusive; . = not tested or not shown. A portion of the library; rates above refer to the full screens.

SMILES	RecA intein inh	Arbovirus anti	YopH inh	Mtb H37Rv	Mtb bLac sens
CCc1cccc2sc(NC(=O)c3ccc(N4C(=O)CCC4=O)cc3)nc12	-5.5	-4	-20	.	2
COC(=O)c1ccc(Oc2c(Cl)cccc2[N+](=O)[O-])cc1	-0.8	2	-51	5%	10
C=CCNC(=O)c1oc2ccc(S(=O)(=O)N3CCCCC3)cc2c1C	-6.4	.	.	.	1
O=C(Nc1ccc(-n2cccn2)cc1)C1CCCCN1Cc1cccc2cccnc12 (centres undefined)	6.0	.	.	.	86
COc1ccc(-c2cn3ccccc3n2)cc1OC	-3.0	-7	-40	-2%	21
Cc1ccnc(NC(=O)CCC(=O)c2cccs2)c1	1.2	.	.	.	-9
Cc1ccc(C)c(Cn2c(C(=O)O)c(C=O)c3ccccc32)c1	0.2	6	.	2%	14
C=CCNC(=O)CN1CCC(O)(c2ccc(F)cc2)CC1	0.2	5	-46	-3%	-5
Cc1ccc(S(=O)(=O)NCc2ccc(C(=O)NCCN(Cc3ccccc3)C(C)C)cc2)cc1	2.0	-22	.	1%	2
O=P(COCCO)(c1ccccc1)c1ccccc1	0.8	9	-36	-7%	-8
O=[N+]([O-])c1ccc(Sc2n[nH]c(-c3ccncc3)n2)nc1	2.3	1	.	-4%	-1
C=CCn1c(SCC(=O)Nc2ccc(-c3nc4ccc(C)cc4s3)cc2)nnc1-c1ccccc1	-0.7	7	6	.	-2
CCN(C(=O)COC(=O)C1CCN(S(=O)(=O)c2ccc(C)c(C)c2)CC1)C1CCS(=O)(=O)C1 (centres undefined)	-7.1	.	.	.	-4
CCCS(=O)(=O)N1CCc2ccc(NC(=O)C3CCCO3)cc2C1 (centres undefined)	2.3	.	.	.	-2
O=C(CNC(=O)c1cccs1)N/N=C/c1ccccc1[N+](=O)[O-]	-1.4	.	.	.	0
O=C(CN1CCCCCC1)Nc1cccc2c1OCO2	-0.7	10	-27	-13%	12
COc1ccc(C(=O)Nc2ccc(S(=O)(=O)N3CCCCC3)cc2)cc1OC	4.8	-10	-37	5%	-6
COc1ccc(NC(=O)COc2ccc3oc(=O)cc(C)c3c2)cc1	0.1	.	.	-3%	-11
COc1ccc(/C=N/NC(=O)CSCC(=O)Nc2ccccc2)cc1OC	-2.8	-3	-30	-7%	-5
CCCCNC(=O)c1onc(CSc2ccncc2)c1C(=O)NCCCC	-0.5	.	.	8%	-5

Shown as labelled records: entries from further up.
canonical_smiles: COc1ccc(C(=O)Nc2ccc(S(=O)(=O)N3CCCCC3)cc2)cc1OC
- RecA intein inh: 4.8
- Arbovirus anti: -10
- YopH inh: -37
- Mtb H37Rv: 5%
- Mtb bLac sens: -6
canonical_smiles: COc1ccc(NC(=O)COc2ccc3oc(=O)cc(C)c3c2)cc1
- RecA intein inh: 0.1
- Arbovirus anti: .
- YopH inh: .
- Mtb H37Rv: -3%
- Mtb bLac sens: -11
canonical_smiles: COc1ccc(/C=N/NC(=O)CSCC(=O)Nc2ccccc2)cc1OC
- RecA intein inh: -2.8
- Arbovirus anti: -3
- YopH inh: -30
- Mtb H37Rv: -7%
- Mtb bLac sens: -5
canonical_smiles: CCCCNC(=O)c1onc(CSc2ccncc2)c1C(=O)NCCCC
- RecA intein inh: -0.5
- Arbovirus anti: .
- YopH inh: .
- Mtb H37Rv: 8%
- Mtb bLac sens: -5

Going on with the list:
SMILES	RecA intein inh	Arbovirus anti	YopH inh	Mtb H37Rv	Mtb bLac sens
O=C(CCN1C(=O)c2ccccc2S1(=O)=O)Nc1ccccc1	-2.0	4	.	3%	2
COCCOC(=O)/C(=C\c1cc(C(C)(C)C)c(O)c(C(C)(C)C)c1)C(C)=O	-2.4	.	.	2%	-2
Cc1ccc(C)n1C1CCS(=O)(=O)C1 (centres undefined)	-2.8	-11	-39	.	-4
COc1ccc2c(c1)[nH]c1c(=O)n(/N=C/C3C(C)C=C(C)CC3C)c(=O)[nH]c12 (centres undefined)	-1.3	-8	.	5%	-3
CC1=CC(=C2C(=O)c3ccccc3C2=O)C=C(C)O1	2.4	-4	-41	.	7
Cc1nc2sc(C(c3cccc(F)c3)N3CCC(O)CC3)c(O)n2n1 (centres undefined)	-3.4	-1	-26	-10%	4
O=C(NN1S(=O)(=O)c2ccccc2S1(=O)=O)c1ccc(Br)cc1	-3.6	23	.	-3%	14
Cc1cccc(NC(=O)CSc2nnc([C@@H](N)Cc3ccccc3)o2)c1C	-0.5	0	-13	-9%	3
C/C(=N\Nc1ccc(F)cc1F)c1ccc(Br)s1	1.2	-29	.	?	96
CCOc1ccccc1NC(=O)Cn1cnc2c(cnn2-c2ccc(C)c(C)c2)c1=O	-0.7	0	-50	0%	-4
CCCCn1c(N)c(N(CCOC)C(=O)CSCc2cccc(C)c2)c(=O)[nH]c1=O	-2.6	.	.	.	-1
O=C(Nc1ccn(Cc2ccc(Cl)cc2)n1)c1ccc2c(c1)OCO2	2.6	-25	-4	?	99
CC1CCc2c(sc(N)c2C(N)=O)C1 (centres undefined)	-3.2	0	-41	2%	-13
COc1ccc(S(=O)(=O)N(CC(=O)Nc2ccc(S(=O)(=O)N3CCOCC3)cc2)Cc2ccc(F)cc2)cc1	1.6	3	-17	14%	?
COC(=O)[C@@H](N)CS	-5.6	5	-12	-6%	2
O=C(Nc1sc2c(c1C(=O)O)CCCCC2)c1cccnc1	0.2	.	.	.	-4
O=C(NCc1nnc(SCC(=O)N2CCc3ccccc32)o1)c1ccco1	0.6	0	.	3%	0
O=C(Nc1ccc(F)cc1)Oc1ccccc1N1CCOCC1	-3.4	.	.	-6%	-7
CCC(C)(C)NC(=O)C(c1ccc(C)cc1)N(CC1CCCO1)C(=O)c1csnn1 (centres undefined)	-0.6	.	.	.	6
CC(CCc1ccccc1)NC(=O)C(Cc1ccccc1)NS(=O)(=O)c1cccs1 (centres undefined)	2.8	-8	-37	-9%	1
COC(=O)CS(=O)(=O)c1ccc2c(c1)CC(=O)N2	3.2	16	-33	-9%	-9
O=c1c2ccccc2[nH]c(=S)n1Cc1ccccc1Cl	-2.4	.	.	.	-2
Cc1cc(Oc2ccccc2)nc(NCc2ccccc2)n1	0.3	-9	-7	14%	6
CNC(=O)CC(C(=O)O)c1ccc(OC(C)C)cc1 (centres undefined)	1.0	6	8	4%	-3
COc1ccc(S(=O)(=O)NCc2ccccn2)cc1NC(=O)c1ccccc1	-0.5	.	.	.	-1
COc1cc(C(=O)n2nc(C)cc2C)ccc1O	-0.5	8	9	1%	-9
O=C(Nc1ccc2nn(-c3ccccc3)nc2c1)c1cccs1	0.9	4	-23	-2%	8
O=S1(=O)CCN2C(c3cccc4ccccc34)=CSC2=N1	-3.4	7	.	3%	-3
C/C(N)=C(/C#N)C(=O)COC(=O)c1cccc2ccccc12	.	2	-28	2%	1
COc1ccccc1NC(=O)c1ccc2c(O)c(S(=O)(=O)c3ccccc3)c(=O)[nH]c2c1	-0.8	.	.	.	0
COc1ccc(NC(=O)CSc2nncn2C)c([N+](=O)[O-])c1	-3.4	7	-21	-1%	.
COc1ccccc1NC(=O)c1cc(S(=O)(=O)N2CCC3(CC2)OCCO3)ccc1F	0.1	1	-54	-1%	-7
O=C1N/C(=C\c2ccc(O)cc2)C(=O)c2ccccc21	.	15	11	10%	.
O=C(Cn1nnc(-c2cccs2)n1)NCCc1ccccc1	-0.6	2	-23	1%	-10
CCOC(=O)c1ccc(N2CCOCC2)c(NC(=O)c2ccc3c(c2)OCO3)c1	0.1	.	.	.	?
O=S1(=O)N=C2CCCCCN2C(c2ccncc2)N1 (centres undefined)	-0.2	6	-1	-4%	-11
O=C(NCc1ccco1)NC(=O)c1csc([N+](=O)[O-])c1	-0.8	.	.	2%	33
CCOc1cc(C2C(C#N)=C(N)OC(C)=C2C(C)=O)c(Br)c(Br)c1OC(C)C (centres undefined)	-2.7	-21	-5	-3%	4
CCCN1CCN(C(=O)C2CCN(S(=O)(=O)c3ccc4c(c3)NC(=O)C(C)S4)CC2)CC1 (centres undefined)	-0.5	.	.	.	4
CCCCOC(=O)c1sc2nc(C)cc(C)c2c1N	-8.1	.	.	-1%	50

Pulled by compound from the entries so far:
SMILES	RecA intein inh	Arbovirus anti	YopH inh	Mtb H37Rv	Mtb bLac sens
O=C1N/C(=C\c2ccc(O)cc2)C(=O)c2ccccc21	.	15	11	10%	.
CCOC(=O)c1ccc(N2CCOCC2)c(NC(=O)c2ccc3c(c2)OCO3)c1	0.1	.	.	.	?

Following part
SMILES	RecA intein inh	Arbovirus anti	YopH inh	Mtb H37Rv	Mtb bLac sens
Cc1nnc(SCc2c(Cl)cccc2Cl)n(N)c1=O	0.6	6	.	12%	-3
N/C(=N\OC(=O)c1ccc(Cl)cc1Cl)c1cccnc1	0.3	-3	.	-1%	-7
O=C(Nc1ccc([N+](=O)[O-])cc1)Nc1ccc(N2CCOCC2)c2nonc12	2.8	-34	.	8%	7
CC(=O)c1cccc(NC(=O)CC2CCCC2)c1	-1.4	.	.	.	2
COc1ccc(N2CCN(C(=O)C3CCN(C(=O)c4ccccc4Cl)CC3)CC2)cc1	-3.3	.	.	.	3
O=C(Nc1nc(-c2ccccc2)cs1)c1ccccc1NS(=O)(=O)c1ccc(F)cc1	35*	-35	-25	2%	1
C/C(=N\Nc1ccc2nncn2n1)c1ccc(Br)s1	-4.0	.	.	4%	24
CCc1nc2ccc(C(=O)N3CCN(c4cc(C)ccc4C)CC3)cc2nc1CC	17	.	.	.	78
O=C(Nc1ccncc1)c1c(F)c(F)c(F)c(F)c1F	0.9	.	.	.	-7
C[C@@H]1O[C@@H](OC[C@H]2O[C@@H](Oc3c(-c4ccc(O)cc4)oc4cc(O)cc(O)c4c3=O)[C@H](O)[C@@H](O)[C@@H]2O)[C@H](O)[C@H](O)[C@H]1O	-3.9	.	.	.	-1
CCn1c(SCC(=O)c2[nH]c(C)c(C(C)=O)c2C)nnc1-c1ccccc1	5.1	15	13	7%	0
CC(=O)N(CCC1(c2ccc(C)cc2)CCOC(C(C)C)C1)Cc1ccco1 (centres undefined)	12	.	.	7%	3
COc1ccc(C(=O)NCC(=O)NCC(=O)OCC(=O)c2ccc(Br)cc2)cc1	2.0	.	.	.	-1
COC(=O)c1ccc(S(=O)(=O)N2CCC(c3nc4ccccc4o3)CC2)cc1	-0.8	6	-26	-4%	4
CCOc1ccc2nc(SC3CC(=O)N(c4ccc(OC)cc4)C3=O)sc2c1 (centres undefined)	1.2	-15	-26	-6%	88
N#CC(C(=O)CCN1C(=O)C2CC=CCC2C1=O)c1nc2ccccc2[nH]1 (centres undefined)	.	5	-15	-15%	0
CCC(C)NS(=O)(=O)c1ccc(F)c(C(=O)Nc2c(F)cc(F)cc2Br)c1 (centres undefined)	-2.8	-8	.	6%	3
CCc1ccc2[nH]c3nc(SCc4nnc(-c5ccccc5)o4)nnc3c2c1	0.4	.	.	-1%	-9
Cn1sc(NC(=O)c2ccc(Cl)cc2)nc1=O	8.1	29	-41	-3%	4
COc1ccc(CNC(=O)C[C@H]2C(=O)N(Cc3ccc(OC)cc3)C[C@@H]2Cc2ccccc2)cc1	4.8	.	.	.	8
CC(C)On1c(SC(C)C)nc2ccccc2c1=O	3.5	-7	3	-2%	4
CC1(C)CC(=O)C(C(c2cccnc2)C2C(=O)CC(C)(C)CC2=O)C(=O)C1	-0.5	5	-40	2%	2
O=C(c1ccco1)N1CCn2cccc2C1c1ccccc1 (centres undefined)	-0.4	-7	.	-1%	4
COc1cc(SC)ccc1C(=O)N1CCCCCC1	-1.6	-1	-34	-6%	0
Cc1ccc(SCCNC(=O)c2ccc(C)c([N+](=O)[O-])c2)cc1	5.7	0	-29	-6%	.
COc1ccc(-c2csc(NC(=O)c3ccoc3C)n2)cc1	4.2	-7	.	3%	-14
Cc1ccc(-n2c(C)nnc2SCC(=O)N2CCc3ccccc3C2)cc1C	-2.4	-1	-26	-1%	0
CCC(C)[C@H](N)C(=O)NC[C@H]1CC[C@H](C(=O)N[C@@H](Cc2ccccc2)C(=O)O)CC1 (some centres undefined)	-2.2	.	.	.	2
CCOc1cccc(-c2nnc3sc(-c4cccs4)nn23)c1	-2.9	-1	-26	-1%	-14
CCCN(CCC)C(=O)/C=C/c1cccc([N+](=O)[O-])c1	-0.5	.	.	7%	-6
Cn1c(CC(=O)Nc2ccccc2F)nnc1SCC(=O)Nc1ccccc1Br	-2.8	.	.	.	5
N=c1ccn(Cc2ccc(Cl)cc2)cc1	-2.4	-16	-36	1%	-1
CCOC(=O)c1[nH]c2ccccc2c1NC(=S)Nc1ccccc1C	-3.8	-8	18	.	-10
CCOC(=O)CN1C(=O)C(=O)N(Cc2c(F)cccc2Cl)C1=O	-2.3	.	.	.	-10
COc1ccc(-c2nnc(SCc3nnc(-c4ccccc4)o3)n2-c2ccccc2)cc1	4.6	0	-22	-2%	3
CCOC(=O)c1c(NC(=O)Cn2cnc3sc(C)c(-c4ccccc4)c3c2=O)sc(C)c1C	2.5	4	-24	2%	-13
O=S(=O)(c1ccccc1)N1CN(Cc2ccc(F)cc2)c2nc3ccccc3nc21	-1.1	.	.	-4%	-11
COc1ccccc1NS(=O)(=O)c1cc(C(=O)NCC(c2ccco2)N(C)C)ccc1C (centres undefined)	11	.	.	.	1
